# VDR inhibitor: blocks the human vitamin D receptor; VDR-SRC2-3 peptide fluorescence polarization, 2 h; Potency, µM, inactives show max response, negative = inhibition, most hits filed as inhibitors; hit rate 0.93% among 400,000; active = well fitted inhibition curve with a large enough effect; inconclusive = small, poorly fitted or top-dose-only effect, or another doubt; inactive = no such curve, though single readings can be large or run the other way; also: series mostly up to about 120 µM
# Target sequence (P11473 whole entry, looked up): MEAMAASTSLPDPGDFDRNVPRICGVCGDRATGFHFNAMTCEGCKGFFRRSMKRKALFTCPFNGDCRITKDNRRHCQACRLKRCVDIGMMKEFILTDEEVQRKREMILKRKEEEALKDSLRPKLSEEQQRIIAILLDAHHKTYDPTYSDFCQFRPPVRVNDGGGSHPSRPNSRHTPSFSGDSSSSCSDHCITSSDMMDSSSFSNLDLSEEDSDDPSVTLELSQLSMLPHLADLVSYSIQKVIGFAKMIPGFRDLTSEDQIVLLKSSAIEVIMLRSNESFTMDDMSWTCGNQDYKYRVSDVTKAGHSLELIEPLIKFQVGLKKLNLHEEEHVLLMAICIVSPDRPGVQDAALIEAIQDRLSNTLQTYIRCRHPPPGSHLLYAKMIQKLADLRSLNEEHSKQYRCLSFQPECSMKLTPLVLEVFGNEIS
#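 Signal is fluorescence polarization, reporting how far test compounds block the interaction of VDR with the SRC2-3 coregulator peptide after a 2 h room-temperature incubation.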
# Active calls of the source: *; ? = inconclusive. % is scaled to controls: 0 for no effect and ±100 for the full control effect; potency is read from the fitted curve at half-maximal effect. Some of the compounds tested. The share of hits here may be higher or lower than overall.
SMILES,VDR inhibitor
CCCCn1c(N)c(N(CCC(C)C)C(=O)COC(=O)/C=C/c2ccc(F)cc2)c(=O)[nH]c1=O,-8%
CC(C)(C)OC(=O)C[C@@H]1C/C=C\C[C@H](CC(=O)N(CCO)Cc2ccccc2)C(=O)N[C@@H](Cc2ccccc2)COC1=O,7%
COc1cc(-c2nnn(CC(=O)NC3CCS(=O)(=O)C3)n2)ccc1OCc1ccccc1 (configuration not stated),0%
COC(=O)c1ccc(NC(=O)COC(=O)C2CCC2)cc1,-10%
COc1ccc2nc3sc(C(=O)NCCCN4CCc5ccccc5C4)cc3cc2c1,?
CCNc1ncc2nc(-c3ccc(F)cc3)c(=O)n(CCC#N)c2n1,-17%
O=C(CCC1N=C2c3ccccc3N=C(SCc3ccccc3F)N2C1=O)NCc1ccccc1 (configuration not stated),11%
O=C(O)CCN1C(=O)c2ccc(Oc3ccc([N+](=O)[O-])cc3)cc2C1=O,-15%
CCN1CCCC1CNC(=O)C(=O)NC(C)C (configuration not stated),-3%
COc1cc(C(=O)N/N=C/c2ccc(OC(=O)c3ccccc3Cl)c(OC)c2)ccc1O,-14%
COc1cc2cnc(CCCC#N)cc2cc1OC,?
O=C1NC(=Nc2ccccc2)S/C1=C\c1cccn1-c1ccccc1,6%
CCn1c(C)cc(C(=O)CSc2nnc(-c3ccco3)o2)c1C,13%
O=c1cc(O)c2ccc(O)cc2o1,-6%
Cc1cccc(-c2nnc(SCC(=O)N3CCOCC3)o2)c1,7%
O=C(Nc1nnc(SCc2ccc(F)cc2)s1)c1ccc2ncsc2c1,-1%
CCN1C(=NCCOC)N[C@@H](c2cccc(C(F)(F)F)c2)C(C(=O)OC)=C1C,-19%
Cc1ccc(NC(=O)Nc2cccc3ccccc23)cc1,-11%
CC(=O)c1ccc(NC(=O)C2CCCN2S(=O)(=O)c2ccc(C)cc2)cc1 (configuration not stated),-6%
CC(C)CNC(=O)c1cccc(NC(=O)c2ccc(Cl)c([N+](=O)[O-])c2)c1,-8%
COc1cc([N+](=O)[O-])ccc1NC(=O)CCCOc1ccccc1,-10%
O=C(COC(=O)/C=C/c1ccc(F)cc1)NC1CCCCCC1,20%
CC(CNS(=O)(=O)c1ccc(Cl)cc1)n1cncn1 (configuration not stated),-15%
O=C(Nc1ccc2c(c1)OCO2)c1ccc(Br)c(S(=O)(=O)N2CCCC2)c1,8%
COc1ccc(C(=O)NCc2ccccc2)cc1S(=O)(=O)N1CCCc2ccccc21,14%
CCOc1cc(C(=O)Nc2ccc(-c3cn4cccnc4n3)cc2)cc(OCC)c1OCC,-5%
CCN(CC(=O)Nc1ccccc1C(F)(F)F)C(=O)CCc1c(C)[nH]c(=O)c(C#N)c1C,18%
Cc1ccc(C)c(Nc2nc3c(S(=O)(=O)c4ccc(Br)cc4)nnn3c3ccsc23)c1,-3%
CC12CCC(C(=O)NNc3ccc([N+](=O)[O-])cc3)(CC1=O)C2(C)C (configuration not stated),2%
O=C(c1cc(-c2ccccc2Cl)on1)N1CCCC1,15%

# The last 4 records of the part before come first, to join the parts.
SMILES,VDR inhibitor
CCN(CC(=O)Nc1ccccc1C(F)(F)F)C(=O)CCc1c(C)[nH]c(=O)c(C#N)c1C,18%
Cc1ccc(C)c(Nc2nc3c(S(=O)(=O)c4ccc(Br)cc4)nnn3c3ccsc23)c1,-3%
CC12CCC(C(=O)NNc3ccc([N+](=O)[O-])cc3)(CC1=O)C2(C)C (configuration not stated),2%
O=C(c1cc(-c2ccccc2Cl)on1)N1CCCC1,15%
Cc1ccnc(NS(=O)(=O)c2ccc(NC(=O)CSc3nc(-c4ccccc4)cc(=O)[nH]3)cc2)n1,-3%
O=C(COC(=O)C1CC(=O)N(CCc2ccccc2)C1)c1ccc[nH]1 (configuration not stated),-3%
COc1cccc(CNC(=O)CSc2nc(=O)[nH]c3c2CCCC3)c1,6%
Cc1onc(-c2ccccc2Cl)c1C(=O)O/N=C(\N)c1ccccc1,-3%
C[C@H]1CCC(=O)N([C@H](CSc2ccccc2)Cc2ccccc2)CC1,5%
O=C(N/N=C/c1cccs1)c1cccnc1,1%
COc1ccccc1N(CC(=O)NC1CCCC1)C(=O)C1(C)CC(=O)N=C2C=CC(C)=CN21 (configuration not stated),16%
CCOC(=O)c1ccccc1NC(=O)c1ccc2c(SCC(=O)O)c3c(nc2c1)CCCC3,-23%
O=C(NNc1nc(-c2ccc(Br)cc2)cs1)c1ccco1,-15%
Cc1ccc(C2N(c3cccc(Cl)c3)C(=O)N3CCCN23)cc1 (configuration not stated),0%
Cc1c(NC(=O)CSc2ncnc3c2cnn3-c2ccccc2)c(=O)n(-c2ccccc2)n1C,8%
CN(CC(=O)Nc1cc(Cl)ccc1Cl)C1CCS(=O)(=O)C1 (configuration not stated),-5%
CCCOc1ccc(CSc2nc3ccccc3[nH]2)cc1,-5%
Cc1ccc(Cl)cc1NC(=O)c1nnn(Cc2ccccc2)c1N,-12%
C=CCc1c(C)nc(-c2ccccc2)nc1N/N=C/c1ccncc1,6%
O=C(/C=C/c1ccccc1Cl)Nc1cccc(O)c1,13%
O=C(O)CCCCCNC(=O)Cn1nnc2ccccc2c1=O,18%
COc1ccc(N2CCN(c3ccc(N4C(=O)COCC4=O)cc3[N+](=O)[O-])CC2)cc1,-5%
COc1ccccc1NC(=O)n1ncc2c(C)cccc21,4%
CC(=O)Nc1ccc(C(=O)NCCc2ccccc2)cc1,-3%

# Arranged by molar mass (lowest first): 7 of the compounds above.
SMILES,VDR inhibitor
O=C(/C=C/c1ccccc1Cl)Nc1cccc(O)c1,13%
CC(=O)Nc1ccc(C(=O)NCCc2ccccc2)cc1,-3%
CCCOc1ccc(CSc2nc3ccccc3[nH]2)cc1,-5%
O=C(O)CCCCCNC(=O)Cn1nnc2ccccc2c1=O,18%
C=CCc1c(C)nc(-c2ccccc2)nc1N/N=C/c1ccncc1,6%
CN(CC(=O)Nc1cc(Cl)ccc1Cl)C1CCS(=O)(=O)C1 (configuration not stated),-5%
COc1ccc(N2CCN(c3ccc(N4C(=O)COCC4=O)cc3[N+](=O)[O-])CC2)cc1,-5%

# Additional compounds
SMILES,VDR inhibitor
COc1ccc(Nc2nc(Cl)nc(Nc3ccc(OC)cc3)n2)cc1,-12%
CCOc1cc(/C=N/NC(=O)CNc2ccc(C)cc2)ccc1OC(=O)c1ccccc1,5%
O=S(=O)(c1ccc(F)cc1)N1CCN(C(=S)NCC2CCCO2)CC1 (configuration not stated),-19%
COC(=O)CC1c2cc(OC)c(OC)cc2CCN1C(=O)Nc1ccc(C)cc1Cl (configuration not stated),14%
Cc1cc(NC(=O)COC(=O)C2CC2)ccc1Br,8%
C/C(=C\C(=O)c1ccccc1)NCc1ccc(F)cc1,3%
COC(C(=O)Nc1ccccc1F)c1ccccc1 (configuration not stated),3%
O=C(O)/C(=C1/OC(=O)c2ccccc21)c1ccccc1,7%
COCCNC(=O)/C(C#N)=C/c1ccc(C(=O)O)cc1,-17%
CCOC(=O)C1CCCCN1Cc1cc(Cl)ccc1O (configuration not stated),-3%
CC(C)C(=O)NNC(=O)CSc1nc(C2CCCCC2)nc2ccccc12,-5%
Cc1cc(C)c2c(c1)c(C)cc1nnc(SCC(=O)c3cccs3)n12,3%
COCCSc1nnc(-c2cccc(C#N)c2)n1C,0%
COC(=O)c1cccc(Nc2c(-c3cc(Br)ccc3O)nc3nc[nH]n23)c1,15%
CN(C)S(=O)(=O)N1CCC(Oc2ccc(C(=O)N3C[C@H]4CC[C@H]3C4)cc2)CC1,-10%
COc1ccc(C(=O)Nc2sc(C)c(C)c2CN2CC(C)OC(C)C2)cc1 (configuration not stated),-15%
CCOc1ccc(S(=O)(=O)NCc2ccco2)cc1,-1%
Cc1nn(CC(=O)NCc2ccc(N(C)C)cc2)c(=O)c2nn(-c3ccccc3)c(C)c12,14%
O=C(NCC1CCCO1)c1cn(Cc2ccccc2Cl)nc1-c1ccccc1 (configuration not stated),-12%
Cc1ccc(NC(=O)c2c(NC(=O)c3ccccc3Cl)sc3c2CCC3)cc1,-8%
COc1ccc2c(-c3ccccc3)cc(SCC(=O)N(C)C)nc2c1,2%
CN1CCN(c2ccccc2NC(=O)c2ccc([N+](=O)[O-])cc2Cl)CC1,24%
CCCc1cc(=O)oc2c(C)c(OCC(=O)NCCCN3CCOCC3)ccc12,2%
O=C(c1cccc(F)c1F)N1CCCC1,-7%
CCCC(=O)NC1CC(=O)N(c2ccc3c(c2)OCCO3)C1 (configuration not stated),11%
CC(C)C(c1nnnn1Cc1ccc(F)cc1)N1CCN(C(=O)c2ccco2)CC1 (configuration not stated),0%
COc1ccc(OC)c(/C=C/c2ccnc3ccccc23)c1,-9%
C=CCN1CCN(C(=O)c2cc3c(s2)CCC(CC)C3)CC1 (configuration not stated),-1%
COC(=O)c1cc(CNC(=O)c2ccccc2Cl)ccc1OC,-5%
CC(Oc1ccc(Br)cc1)C(=O)Nc1nc(-c2ccccn2)cs1 (configuration not stated),?
CN(CC(=O)O)S(=O)(=O)c1cc(Cl)ccc1Cl,6%
c1ccc(-c2ccnc3nc(-n4cccc4)nn23)cc1,-24%
Cc1nnc(SCC(=O)Nc2nc3ccccc3s2)n(N)c1=O,-15%
COc1ccc(-c2c(-c3ccsc3)oc3ccc(N4CCOCC4)cc23)cc1,-6%
COc1ccc(-c2nnc(SCC(=O)N3CCOCC3)o2)cc1,-22%
Cc1nn(-c2ccccc2)c2sc(C(=O)n3cccn3)cc12,-4%
CCc1c(O)cc(=O)n(-c2ccccc2)c1-c1ccccc1,?
CCN(CC)CCCn1c2c(c(SCC(=O)N3CCCc4ccccc43)nc1=O)CCC2,7%
c1ccc(CNc2nc(NCc3ccco3)nc(N3CCOCC3)n2)cc1,-7%
COc1ccccc1CNC(=O)C(=O)NCC1OCCN1C(=O)c1ccc(Cl)cc1 (configuration not stated),20%
O=C(Cn1cnc(S(=O)(=O)N2CCOCC2)c1)Nc1ccc(OC(F)(F)F)cc1,1%
COc1cc(NC(=O)C(=O)N2CCN(C)CC2)c(OC)cc1Cl,7%
CN(c1nnc(NC(=O)Nc2ccc(Br)cc2)s1)C1CCCCC1,8%
CC1CCN(S(=O)(=O)c2cc([N+](=O)[O-])ccc2Cl)CC1,-10%
COC(=O)c1c(NC(=O)CN2CCCc3ccccc32)sc(C)c1C,-22%
CCOC(=O)C1=CN(Cc2ccco2)S(=O)(=O)N(CC)C1c1ccc(F)c(Cl)c1 (configuration not stated),-18%
Cc1cc(O)ccc1Nc1nc(-c2sc(N)nc2C)cs1,-15%
O=[N+]([O-])c1cc([N+](=O)[O-])c(Oc2cc(Cl)ccc2Cl)cc1NC1CCCCCCC1,?
O=C(NCCc1ccccc1)C1CCCN1C(=O)Nc1ccccc1 (configuration not stated),-10%
CN(C(=O)c1cc2sccc2n1C)C1CCCCC1,-4%

# Arranged by the number under VDR inhibitor (high to low): some entries from above
SMILES,VDR inhibitor
O=C(O)/C(=C1/OC(=O)c2ccccc21)c1ccccc1,7%
C/C(=C\C(=O)c1ccccc1)NCc1ccc(F)cc1,3%
Cc1ccc(C2N(c3cccc(Cl)c3)C(=O)N3CCCN23)cc1 (configuration not stated),0%
CC(=O)Nc1ccc(C(=O)NCCc2ccccc2)cc1,-3%
CCCOc1ccc(CSc2nc3ccccc3[nH]2)cc1,-5%
CC(CNS(=O)(=O)c1ccc(Cl)cc1)n1cncn1 (configuration not stated),-15%

# (more compounds)
SMILES,VDR inhibitor
O=C(CCc1nnc(CCC2CCCCC2)o1)NCc1ccon1,-9%
COc1cc(NC(=O)COC(=O)c2ccc3ccccc3n2)cc(OC)c1,1%
COc1ccccc1NNC(=O)c1cc(C(C)(C)C)nn1Cc1ccccc1,-1%
Cc1cc(C)c2nc(NC(=O)c3ccc(S(=O)(=O)N4CCc5ccccc54)cc3)sc2c1,13%
CC(CCc1ccccc1)NC(=O)CSc1ccccn1 (configuration not stated),-12%
CC(=O)Nc1ccc(S(=O)(=O)N2CCC(C(=O)O)(c3ccccc3)CC2)cc1,-12%
CC(=O)N1CCN(C(=O)Cn2c(=O)oc3ccccc32)CC1,3%
CN(C(=O)C1CCN(c2ncnc3c2nc2n3CCCCC2)CC1)c1ccccc1F,14%
O=C(NCc1ccccc1C(F)(F)F)C1CCC(=O)N(C2CCCCCC2)C1 (configuration not stated),11%
Clc1ccc(Sc2cc(N3CCOCC3)nc(-c3ccccc3)n2)cc1,0%
Cn1ccnc1SCc1cccc([N+](=O)[O-])c1,20%
CCOC(=O)c1c(NC(=O)CSc2nnc(CNc3ccc(C)cc3C)o2)sc(C)c1C,-12%
CC(C)n1c(SCC(N)=O)nc2c1c(=O)[nH]c(=O)n2C,-7%
Cc1nccc(-c2ccc3c(c2)OCO3)n1,8%
O=C(CSc1nnc2ccccn12)NC(=O)Cc1ccccc1,8%
COc1ccc(S(N)(=O)=O)cc1-c1nnc2c3ccccc3c(C)nn12,1%
O=C(NCc1cccc(F)c1)c1noc2c1CCCC2,-7%
FC(F)(F)c1cc(-c2ccco2)nc(NCc2cccnc2)n1,-19%
Cn1c(C(C#N)C(=O)c2ccco2)nc2ccccc21 (configuration not stated),17%
CC(Cc1ccccc1)NC(=O)c1cc([N+](=O)[O-])ccc1Cl (configuration not stated),17%
CCN(CC)C(=O)CP(=O)(c1ccccc1)c1ccccc1,7%
CCS(=O)(=O)N1CCC(C(=O)NCc2ccc(OC)cc2OC)CC1,-9%
CC(=O)NCCNc1nc(-c2ccccc2CN(C)C)nc2ccccc12,-3%
CCCN(CC(=O)Nc1ccc(C(N)=O)cc1)CC(=O)Nc1ccccc1C,-12%
Cc1c(C(=O)N/N=C/c2cccnc2)sc(=S)n1C,-8%
Clc1ccc(SCc2cn3ccsc3n2)cc1,14%
CC(C)NC(=O)CN1CCN(C(=O)c2ccc3oc(CCCc4ccccc4)nc3c2)CC1,0%
O=C(COC(=O)c1cc(NS(=O)(=O)c2cccs2)ccc1O)Nc1ccc(F)c(F)c1F,7%
CC(C)=CC(=O)OCC(=O)Nc1cc([N+](=O)[O-])ccc1F,-18%
CCOc1ccc(C(C(=O)NC2CCCC2)N(C(=O)c2snc(C(N)=O)c2N)c2cccc(O)c2)cc1 (configuration not stated),0%
